# Source: PubChem
# RE007 growth inh: qHTS Assay for Inhibitors of the HIV-1 protein Vpr | 360,000 tested, 0.21% active | S. pombe RE007 Vpr strain, BacTiter-Glo ATP luminescence, 24 h; control for the full effect not named in the record | AID 651644, 2012 | Potency, µM (doses to about 92.2 µM), without a hit: at the highest dose activity change, negative = less growth; active = well fitted falling curve with a large enough effect; inconclusive = small, poorly fitted or top-dose-only effect; inactive = no such curve, though single readings can be large or run the other way;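 further: on the % scale 0 is the no-effect control and ±100 the full control effect; nearly all actives have a fitted effect of over 50% in size; the assay follows cell death caused by Vpr and the record does not say whether a fall means rescue or toxicity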
#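 Fission yeast RE007 carrying one integrated HIV-1 vpr copy, seeded at OD 0.01 in PMG+AL medium with 23 nL pinned compound. Grown 24 h at 30 degrees; viability read by BacTiter-Glo luminescence after 5 min.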
# StopGo reporter: High Throughput Screening for Foot and Mouth Disease Virus Antivirals; Potency, µM (top dose mostly 57.9 µM), without a hit: at the top dose signal change, negative = less light; human cells with a luciferase reporter of 2A StopGo recoding; control for the full effect not named in the record; AID 1159524, 2015; 410,000 tested, 1.2% active; active = well fitted falling curve with a large enough effect; inconclusive = small, poorly fitted or top-dose-only effect; inactive = no such curve, though single readings can be large or run the other way; tested in HEK293T cells; further: on the % scale 0 is the no-effect control and ±100 the full control effect; nearly all actives have a fitted effect of over 45% in size; luciferase light after 4 h
# SARS PLP yeast: qHTS of Yeast-based Assay for SARS-CoV PLP | Potency, µM (doses to about 32.9 µM), for the others: top-dose activity, positive = growth rescue | S. cerevisiae expressing SARS-CoV PLpro, growth rescue; control for the full effect not named in the record | 330,000 tested, 0.19% active; active means well fitted rising curve with a large enough effect; inconclusive means small, poorly fitted or top-dose-only effect; inactive means no such curve, though single readings can be large or run the other way; further: 0% is about no effect; nearly all actives have a fitted effect of over 55% in size; growth read by luminescence after 48 h
# * = called active by the depositor; ? = inconclusive; [ ] = remark or other dose. Potency means the concentration at half of the fitted maximal effect. The list is partial; the hit share may differ from the screen's.
SMILES,RE007 growth inh,StopGo reporter,SARS PLP yeast
CCOc1ccc(N2CC(C(=O)Nc3cccc(C(=O)NC4CC4)c3)CC2=O)cc1 (stereo not drawn),-12%,-1%,3%
COc1cc(CC(=O)N2CCN(S(=O)(=O)c3ccc(C)cc3)CC2)cc(OC)c1OC,6%,-4%,5%
CN(CCCC(=O)N1CCN(c2ncccn2)CC1)S(=O)(=O)c1ccc(F)cc1,-5%,-1%,1%
O=C(Cc1csc(-c2ccc(F)cc2)n1)Nc1cccc(S(=O)(=O)NC2=NCCC2)c1,3%,33%[activator],6%
COc1cc(OC)cc(C(=O)NCC(=O)N2CCCCCCC2)c1,-9%,-11%,1%
COC(=O)C1=C(c2ccc(F)cc2F)C[C@@H]2CC[C@H]1N2C(=O)NCCOc1ccc(OC)cc1,12%,-11%,5%
C=C[C@](C)(CC[C@@]1(C)C(C)CC(OC2OC(C)C(OC3OC(COC(C)=O)C(O)C(O)C3O)C(O)C2O)[C@@]2(C)C(C)=CCCC12)OC1OC(C)C(O[C@@H]2O[C@@H](C)C(O)C(O)[C@H]2O)C(O)C1O (stereo partly drawn),3%,-10%,-1%
COC(=O)c1c(-c2ccsc2)sc2ccc(-c3cc(OC)c(OC)c(OC)c3)cc12,7%,?,-9%
CC1CCCN(CC(=O)c2ccc(Cl)c(Cl)c2)C1 (stereo not drawn),-27%,6%,-2%
Cc1ccc(NC(=O)C(C)Sc2nnc3ccccn23)cc1 (stereo not drawn),7%,20%,4%
O=C(Nc1cccc(S(=O)(=O)N2CCCCC2)c1)c1ccc([N+](=O)[O-])o1,1%,-23%,-21%
Cc1ccc(C)c(C(=O)CCC(=O)OCn2nnc3ccccc3c2=O)c1,0%,-16%,3%
CC(=O)O[C@H]1[C@H](O)[C@H](Oc2c(O)c(C)c3c4c2[C@@H](C)CC[C@@H]4[C@@H](C)C[C@H]3C=C(C)C)O[C@@H](C)[C@H]1O,?,-10%,-18%
CCNS(=O)(=O)c1ccc(C(=O)OCC(=O)N2CCCc3ccccc32)cc1,-1%,9%,2%
Cc1ccc(OCC(=O)N2c3ccccc3CC2C)c([N+](=O)[O-])n1 (stereo not drawn),-11%,17%,3%
CCC(=O)OC(Cc1ccccc1)(c1ccccc1)[C@H](C)CN(C)C (stereo partly drawn),-2%,-26%,6%
CC(CCc1ccccc1)NC(=O)CCNS(=O)(=O)c1ccccc1C(F)(F)F (stereo not drawn),-16%,-16%,1%
Cc1cc(-c2ccccc2)cc(-c2ccccc2)[n+]1CCc1ccccc1,-14%,20µM*,2%
Nc1ncnc2c1ncn2[C@@H]1O[C@H](CNS(=O)(=O)c2ccc(-c3ccno3)s2)[C@@H](O)[C@H]1O,-6%,-13%,-6%
Cc1cccc(Cn2nnc3ccccc32)c1O,2%,17%,1%

# Random excerpt: 3 compounds from above
SMILES,RE007 growth inh,StopGo reporter,SARS PLP yeast
Cc1cc(-c2ccccc2)cc(-c2ccccc2)[n+]1CCc1ccccc1,-14%,20µM*,2%
O=C(Nc1cccc(S(=O)(=O)N2CCCCC2)c1)c1ccc([N+](=O)[O-])o1,1%,-23%,-21%
Cc1ccc(OCC(=O)N2c3ccccc3CC2C)c([N+](=O)[O-])n1 (stereo not drawn),-11%,17%,3%

# Returning to the listing; the four compounds before the break are reprinted first.
SMILES,RE007 growth inh,StopGo reporter,SARS PLP yeast
CC(CCc1ccccc1)NC(=O)CCNS(=O)(=O)c1ccccc1C(F)(F)F (stereo not drawn),-16%,-16%,1%
Cc1cc(-c2ccccc2)cc(-c2ccccc2)[n+]1CCc1ccccc1,-14%,20µM*,2%
Nc1ncnc2c1ncn2[C@@H]1O[C@H](CNS(=O)(=O)c2ccc(-c3ccno3)s2)[C@@H](O)[C@H]1O,-6%,-13%,-6%
Cc1cccc(Cn2nnc3ccccc32)c1O,2%,17%,1%
O=C(Cn1cnc2c(OCc3ccccc3)ncnc21)NCc1ccc2[nH]ccc2c1,7%,-24%,1%
O=C(O)c1cc([N+](=O)[O-])ccc1NCc1ccccn1,5%,7%,-1%
Cc1cc(SCC(=O)N2CCN(C(=O)c3ccco3)CC2)c(C)cc1Br,-3%,-29%,5%
CN(C(=O)c1cccc(NC(=O)C2CCN(C(=O)OC(C)(C)C)CC2)c1)C1CCCCC1,-15%,?,-24%
CCOC(=O)Cc1cn(C(=O)OC(C)(C)C)c2ccccc12,-6%,-12%,0%
CC(C)(C)OC(=O)C[C@H]1C/C=C\C[C@@H](CC(=O)N[C@H](CO)Cc2ccccc2)C(=O)NCCOC1=O,-3%,-1%,-11%
Oc1ccc(C[C@@H]2CNCCN2CC2(c3ccccc3)CC2)cc1,2%,-18%,-21%
COc1ccc(C(C)(C)C)cc1NC(=O)COC(=O)c1nc2nccc(C)n2n1,-5%,-9%,2%
O=C(c1ccco1)N1CCN(C(=O)c2cn(-c3ccccc3)nc2-c2ccccc2)CC1,-6%,23%,-1%
COC(=O)[C@]1(C)N[C@H](CN(C)C(=O)NC(C)C)[C@@H]2C(=O)N(Cc3ccccc3)C(=O)[C@@H]21,2%,-12%,-2%
CCOC(=O)N1CCc2c(sc3c2c(=O)n(Cc2ccccc2)c(=O)n3CC(=O)NCCOC)C1,?,-22%,1%
CCn1nnc2cc(C(=O)Nc3cc(Cl)ccc3C)ccc21,-2%,-2%,2%
Cc1ccc2c(c1)C(=O)C(=O)N2Cc1ccccc1,-7%,30%,2%
CCCn1nnc(NC(=S)NC(=O)c2ccccc2OC)n1,-19%,51%[activator],5%
Cc1ccc(S(=O)(=O)N2CCOCC2)cc1NC(=O)CSc1nnc2n1CCCCC2,-16%,-15%,2%
COc1cccc2cc(C(=O)Nc3ccc(F)cc3)c(=Nc3ccc(C(=O)O)cc3)oc12,-3%,0%,-3%
O=C(COC(=O)COc1ccc(Br)cc1)Nc1ccc2c(c1)OCCO2,-2%,1%,5%
O=S(=O)(N/N=C1\CCCc2ccccc21)c1ccccc1,6%,65%[activator],9%[6.58 µM]
O=C(NCCN1CCOCC1)c1ccc(S(=O)(=O)Nc2ccccc2)cc1,-1%,-8%,3%
CC(C)(C)OC(=O)N1CCC(C(=O)Nc2ccc3c(c2)CCC3)CC1,-2%,58%[activator],-1%
C/C(=N\NC(=O)c1ccccc1OCc1ccc(F)cc1)c1ccccn1,-17%,-22%,2%
NN1C(=O)NC(c2ccccc2)(c2ccccc2)C1=O,5%,-11%,2%
c1cnc2c(Oc3ncnc4sccc34)cccc2c1,18%,6%,-5%
COc1ccc(-c2ccc(=O)n(Cc3cccc([N+](=O)[O-])c3)n2)cc1,3%,?,-6%
COc1cc(NC(=O)Cn2cnc3c(OCc4ccccc4)ncnc32)cc(OC)c1OC,-11%,0%,1%
CC(=O)Nc1ccc(S(=O)(=O)N[C@@H](C)C(=O)N2CCN(C/C=C/c3ccccc3)CC2)cc1,7%,?,-5%
COc1ccc(CCNC(=O)CCc2nc3ccccc3[nH]2)cc1OC,-7%,14%,-1%
CN(C)C(=O)CCc1ccc2c3c([nH]c2c1)[C@]1(CCc2ccccc2)[C@@H](C(=O)N2CCCCC2)C[C@H](CC(=O)NCCC2=CCCCC2)C(=O)N1CC3,-4%,14%,5%
CN(C(=O)c1ccc(NC(=O)Cc2cccc(NC(=O)C3CCCN(C(=O)C4CCC4)C3)c2)cc1)C1CCCC1 (stereo not drawn),15%,-10%,1%
Cc1cc(Cl)ccc1OCCCC(=O)NCCCn1ccnc1,-18%,-12%,4%
CCc1ccc(NC(=O)C(=O)N/N=C(\C)CC(=O)NCc2ccc(Cl)cc2)cc1,-29%,36%[activator],1%
CCc1nnc(NC(=O)Cc2ccc(S(=O)(=O)N3CCCCC3)cc2)s1,-2%,2%,0%
C#CCOCCOCCOCCNc1nc(N2CCN(C(=O)CCCCCCCCCCNC(=O)[C@H]([C@@H](C)CC)n3cc(CCCCN=C(N)N)nn3)CC2)nc(N2CCN(C(=O)CCCCCCCCCCNC(=O)[C@H](CCCCN)n3cc(C)nn3)CC2)n1,0%,35µM*,3%
Cc1cc(C)c(NC(=O)CN(C)C(C)C(=O)N2CCc3ccccc32)c(C)c1 (stereo not drawn),-3%,-21%,2%
COc1ccc2[nH]cc(CCNC(=O)c3ccco3)c2c1,6%,-18%,-4%
CCN(C[C@H]1N[C@@](C)(C(=O)OC)[C@H]2C(=O)N(Cc3ccccc3)C(=O)[C@@H]12)C(=O)Nc1ccc(F)cc1,3%,-11%,-4%
CCOCCn1[nH]c2ccccc2c1=O,12%,14%,-7%
CCOC(=O)[C@H]1[C@H]2COc3ccc(C)cc3[C@@H]2N2C(=O)c3cc(Cl)ccc3NC(=O)[C@@]12C,5%,?,0%
O=C(N/N=C/C=C\c1ccccc1[N+](=O)[O-])c1ccco1,-1%,7%,-1%
Cc1ccc([N+](=O)[O-])cc1N=Nc1c(-c2ccc([N+](=O)[O-])cc2)[nH]n(C(N)=S)c1=O,-9%,2.5µM*,1%
C=CCC[C@H](Cc1ccc(F)cc1)C(=O)OC[C@H](Cc1c[nH]c2ccccc12)NC(=O)[C@H](CC=C)CC(=O)N[C@H](CO)Cc1ccccc1,2%,0%,-34%
CCN(CC)C(=O)[C@H]1C[C@H](CC(=O)NCCC2=CCCCC2)C(=O)N2CCc3c([nH]c4ccc(Cl)cc34)[C@]12C,11%,-15%,-31%
Cc1nnc(SCC(=O)Nc2ccc(OC(F)F)c(Cl)c2)n(N)c1=O,6%,-12%,3%
Cc1cccc(Cc2c(C)nc3nc(SCC(=O)O)nn3c2C)c1,-1%,4%,2%
CC(=O)Nc1nc2cc(C(N)=O)ccc2s1,13%,-9%,-4%
COC(=O)C1=C(c2ccc(OC)c(OC)c2)C[C@@H]2CC[C@H]1N2C(=O)NCc1ccc(F)cc1,8%,-12%,-9%
CC(C)(C)c1ccc(NC(=O)COC(=O)C2(C)CC2(Cl)Cl)cc1 (stereo not drawn),0%,20%,-7%
COc1ccc(SC[C@H](C)CN2CC[C@H](C(C)(C)C)CCC2=O)cc1,0%,?,4%
Cc1ccc(S(=O)(=O)N2CCN(C(=S)NCCc3ccccc3)CC2)cc1,21%,23%,4%
CCCN(Cc1ccccc1)C(=S)Nc1ccc(F)cc1,13%,27%,20%

# Later entries:
SMILES,RE007 growth inh,StopGo reporter,SARS PLP yeast
CC(=O)Nc1nc(-c2ccccc2)cc(-c2ccco2)c1C#N,4%,41%[activator],3%
COC(=O)c1ccc(CSc2ccc3nnc(-c4ccc(F)cc4)n3n2)o1,-9%,?,1%
CC(=O)Nc1cccc(NC(=O)COc2ccc3c(c2)CCC3)c1,14%,-3%,-10%
CC(=O)c1cccc(S(=O)(=O)N2CCN(CCOc3ccccc3)CC2)c1,-3%,?,2%
CSCCC(NC(=O)c1ccc(C(C)(C)C)cc1)C(=O)OCC(=O)N1CCCC1=O (stereo not drawn),0%,16%,-5%
Cc1ccn2c(C=O)c(-c3ccc(F)cc3)c(C=O)c2c1,-3%,-5%,-2%
CCOC(=O)C1=CN(Cc2cccc(-c3cccnc3)c2)S(=O)(=O)N(CC)C1C (stereo not drawn),0%,-25%,-7%
COc1ccc(/C=C/C(=O)Nc2ccc3nc4n(c(=O)c3c2)CCCC4)cc1,-9%,16%,0%
CCCCN(C(=O)c1ccc2c(c1)NC(=O)CS2)c1ccccc1,4%,-19%,-1%
O=C(Nc1cccnc1)C1=NN(C2CCS(=O)(=O)C2)C(=O)CC1 (stereo not drawn),5%,9%,1%
N#Cc1ccc(OCC(=O)N2CCCC2=O)cc1,-10%,-7%,0%
CCCCNC(=O)CSc1nnc(-c2cccc(S(=O)(=O)N3CCOCC3)c2)o1,0%,3%,-9%
Cc1ccc(C)c(NC(=O)CN(C)C(=O)c2cc(C3CC3)nn2-c2ccccc2)c1,3%,-25%,-2%
CC(=O)c1cccc(S(=O)(=O)N2CCC(C(=O)Nc3cccc(C(=O)NC4CC4)c3)CC2)c1,1%,-1%,-6%
COc1ccc(NC(=O)C2=CN3CCS(=O)(=O)N=C3C=C2)c(OC)c1,4%,-5%,-10%
CC1CCC(NC(=O)C(C)N2C(=O)C3CCCCC3C2=O)CC1 (stereo not drawn),5%,18%,2%
Cc1ccc(-n2c(=O)c3ccccc3n(CC(=O)NCc3ccco3)c2=O)cc1,-1%,-11%,1%
CS(=O)(=O)c1cccc(NC(=O)CSc2nnc3n2CCCCC3)c1,-6%,-17%,-7%
O=C(CN1C(=O)C2CC=CCC2C1=O)Nc1nnc(C2CC2)s1 (stereo not drawn),-9%,-11%,5%
CCC(C)(C)C1CCC2(CC1)NC(=O)N(CC(=O)NCCCc1ccccc1)C2=O (stereo not drawn),5%,?,0%
O=C(CCN=C1NS(=O)(=O)c2ccccc21)Nc1ccc(F)cc1Cl,-24%,13%,1%
CCCCn1c(N)c(N(CCC(C)C)C(=O)c2ccc(C)o2)c(=O)[nH]c1=O,4%,-12%,-9%[6.58 µM]
Cc1ccc(C(=O)CCC(=O)OCC(=O)NNC(=O)c2ccccc2Cl)cc1,-1%,-11%,-8%
